# Source: PubChem (ICCB-Longwood Screening Facility, Harvard Medical School)
# Polio RdRp inh = poliovirus RNA polymerase inhibition; P03300; AID 588519; poliovirus polymerase elongation, fluorescence polarization; stronger effect = lower value; % elongation, % (compound at 16.7 µg/mL); 0.66% of 150,000 active; in the data active means % elongation below about 90%; further: some results filed as inactive read as strong as hits
# Target sequence (P03300 1749-2209 limits assumed): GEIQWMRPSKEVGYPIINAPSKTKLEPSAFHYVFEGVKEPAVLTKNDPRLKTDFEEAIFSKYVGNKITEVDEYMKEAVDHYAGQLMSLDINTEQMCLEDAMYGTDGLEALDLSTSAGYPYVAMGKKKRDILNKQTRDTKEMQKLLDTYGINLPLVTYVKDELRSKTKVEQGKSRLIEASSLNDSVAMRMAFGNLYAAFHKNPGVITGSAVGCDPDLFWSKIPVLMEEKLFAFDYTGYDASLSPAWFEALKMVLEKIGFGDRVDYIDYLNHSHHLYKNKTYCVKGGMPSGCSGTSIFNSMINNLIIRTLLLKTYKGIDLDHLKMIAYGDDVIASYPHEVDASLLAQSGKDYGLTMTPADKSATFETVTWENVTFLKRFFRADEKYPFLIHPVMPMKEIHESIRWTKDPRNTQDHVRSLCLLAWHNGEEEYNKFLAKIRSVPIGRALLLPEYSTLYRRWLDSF
# Polio RdRp inh intensity = second read-out of Polio RdRp inh, no call of its own (marks repeat the call); % elongation; measured here: total intensity read-out; formula for this scale not given here;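 total fluorescence in place of polarization; lower means less elongation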
# Active calls of the source: *. Only part of the results is shown; count on the stated rates, not on these rows.
SMILES,Polio RdRp inh,Polio RdRp inh intensity
COc1ccc(OC)c(C2c3c(-c4ccc(Br)cc4)n[nH]c3C(=O)N2c2ccc(Cl)cc2)c1 (centres undefined),109,111
CC(=O)NCCc1nc2ccccc2n1CCCCOc1ccc(Cl)cc1,113,112
COc1ccc(/C=C/c2nc(-c3ccccc3O)n(-c3ccccc3)n2)cc1OC,104,103
O=C(COc1ccccc1)Nc1ccccc1OCc1cc(=O)n2ccccc2n1,107,103
Cc1ccccc1NC(=O)CSc1nc2nccnc2c(=O)n1CCc1c[nH]c2ccccc12,102,103
CCOC(=O)c1ccc(NC(=O)CC2C(=O)N(c3cccc(OC)c3)C(=O)N2Cc2ccc(OC)cc2)cc1 (centres undefined),112,112
CCOc1ccccc1CNCc1c(C(=O)O)c(C)n(Cc2ccc(Cl)cc2)c1C,104,105
COc1ccc(S(=O)(=O)N(CC(=O)NCc2ccccc2OC)c2ccc(C)cc2)cc1,102,101
Cc1c(C(=O)N2CCCCCC2)c(S(=O)(=O)NCc2ccccc2)c(C)n1C,104,106
Cc1ccc2c(Sc3ccc(Cl)cc3)c(C(=O)NCCC(C)C)[nH]c2c1,107,114
Cc1cc(C)cc(NS(=O)(=O)c2ccc3[nH]cc(C(=O)NC4CCCCC4)c(=O)c3c2)c1,108,111
Nc1c(C(=O)NCCc2ccccc2)nnn1CC(=O)Nc1ccc(Cl)cc1,102,110
COCCCNC(=O)CCCn1c(SCC(=O)c2ccc(Br)cc2)nc2c(sc3ccccc32)c1=O,102,108
CCc1ccc(CNC(=O)c2cccc(-n3c(C)nc4cccnc43)c2)cc1,107,107
COc1cccc(-c2ccc3c(N)c(C(=O)NCc4ccc(Cl)cc4)sc3n2)c1,108,119
Cc1nc(C)c(-c2ccc(SCC(=O)Nc3ccc(C)c(F)c3)nn2)s1,106,107
Cc1nn(C(=O)c2c(F)cccc2F)c(C)c1S(=O)(=O)N1CCOCC1,108,112
CCOC(=O)c1[nH]c(C)c(CCC(=O)NCc2ccccc2C)c1C,108,101
CCOc1ccccc1NS(=O)(=O)c1ccc2c(c1)oc(=O)n2C,107,113
CCCCNC(=O)c1cnc2sc(N3CCCCCC3)nn2c1=O,113,109
CCOC(=O)c1cc(C)n(CC2CCC(C(=O)Nc3ccc(OCC)cc3)CC2)c1C (centres undefined),100,102
Cc1nn2c(=O)cc(COC(=O)Cc3ccccc3)nc2s1,113,108
COc1cccc(CNC(=O)CN2C(=O)CSc3c2c(C)nn3-c2ccccc2)c1,111,112
CCSc1nn(CC(=O)Nc2cccc(CC)c2)c(N)c1S(=O)(=O)c1ccccc1,103,110
NS(=O)(=O)c1ccc(NC(=O)CN2CCN(c3ccc(F)cc3)CC2)cc1,103,108

# Next section
SMILES,Polio RdRp inh,Polio RdRp inh intensity
CC(C)(C)NC(=O)c1cnn(-c2ccccc2)c1C1CCN(C(=O)OC(C)(C)C)CC1,107,110
Cc1oc2ncn(CC(C)C)c(=O)c2c1C(=O)NCc1cccc(Cl)c1,111,118
COc1cccc(-c2nc3c(c(SCC(=O)Nc4cc(C)ccc4C)n2)Cc2c(CO)cnc(C)c2O3)c1,103,104
CCN(c1ccccc1)c1nnc(NC(=O)Nc2cccc(Cl)c2C)s1,105,107
Cc1ccc2c(=O)c(C(=O)c3cccc(Cl)c3)cn(CC(=O)Nc3ccc4c(c3)OCCO4)c2n1,114,117
COc1ccccc1CNC(=O)Cc1c(C)c2c(cc(C)c3c(C)c(C)oc32)oc1=O,108,109
CCC(Sc1nc2ccncc2[nH]1)C(=O)Nc1cc(Cl)ccc1C (centres undefined),106,106
Cc1ccc(SCC(=O)Nc2ccc3oc(-c4ccc(F)cc4)nc3c2)cc1,111,114
CCOC(=O)c1ccc(OC(=O)c2cn(-c3cccc(OC)c3)c(=O)c3ccccc23)cc1,111,113
Cc1ccccc1Nc1nnc(-c2ccc(C)c(S(=O)(=O)N3CCCCC3)c2)c2ccccc12,102,105
COc1cccc(CN2CCCN(CC(=O)Nc3ccc4c(c3)OCCO4)S2(=O)=O)c1,110,113
COc1ccc(CNC(=O)CSc2nc3ccsc3c(=O)n2Cc2ccccc2Cl)cc1,101,102
O=C(CSc1nc2ccccc2nc1Cc1ccccc1)N1CCCCC1,111,110
Cc1ccc(N2CCN(C(=O)c3ccc4c(Cl)c5c(nc4c3)CCCC5)CC2)c(C)c1,109,113
Cc1ccc(C(C)C)c(OCCCn2c(=O)oc3ccccc32)c1,103,101
Cc1ccc2nc(Cl)c3cc(C(=O)N4CCCCC4C)sc3c2c1 (centres undefined),104,102
Cc1nc2c(C(=O)NCc3ccccc3Cl)cnn2c(C)c1Cc1c(F)cccc1Cl,104,108
O=C(Cn1ncc2c([nH]c3ccccc32)c1=O)NCC1CCN(Cc2ccc(F)cc2)CC1,102,103
Cc1csc2nc(COC(=O)COc3ccccc3F)cc(=O)n12,101,103
COc1cc(NC(=O)CSc2nc(-c3cccs3)cc(C(F)(F)F)n2)cc(OC)c1OC,101,104
Cc1ccc(CSC2=Nc3ccccc3C3=NC(CC(=O)NCc4ccc5c(c4)OCO5)C(=O)N23)cc1 (centres undefined),109,109
O=C(c1ccc2c(c1)N(Cc1ccccc1)C(=O)c1ccccc1S2(=O)=O)N1CCc2ccccc21,106,111
Cc1cc(F)ccc1-n1nnc(C(N)=O)c1C,105,109
Cc1cc(C)c(OCC(=O)N(Cc2ccc(N(C)C)cc2)Cc2ccco2)c(C)c1,98,101
CCOC(=O)c1ccc(NC(=O)CSc2ccc(-c3sc(C)nc3C)nn2)cc1,101,109

# (further entries)
SMILES,Polio RdRp inh,Polio RdRp inh intensity
Cc1ccc(Nc2nc(N)nc(CSc3nc4ccccc4s3)n2)cc1,106,111
CC(NC(=O)C1CCN(C(=O)N2CCOc3ccc(Cl)cc32)CC1)c1ccccc1 (centres undefined),106,104
O=C(Nc1ccc(N2CCN(c3ccc(F)cc3)CC2)c(C(=O)O)c1)c1cccs1,113,111
CCOc1ccccc1CNC(=O)c1ccc2nc(CCc3ccccc3)oc2c1,109,112
COc1cc(O)ccc1-c1nc2cc(C)ccn2c1Nc1ccccc1C,109,112
O=C(Nc1ccc(F)cc1)N1CCN(c2ccccc2F)CC1,99,94
O=C1CN(C(=O)C2CCCCC2)C(c2ccccc2)c2cc(F)ccc2N1 (centres undefined),103,106
CCN(CCCNC(=O)c1cc2cc3ccc(OC)cc3nc2s1)c1ccccc1,114,116
COc1ccc(N(C(=O)c2cc(OC)c(OC)c(OC)c2)S(=O)(=O)c2ccc(C)cc2)cc1,108,106
CCOC(=O)N1CCC(NC(=O)c2ccc3c(c2)N(Cc2cc(C)ccc2C)C(=O)c2ccccc2S3=O)CC1 (centres undefined),105,108
COc1ccc(C2=C(N3CCN(c4cccc(C)c4C)CC3)c3ccccc3C2=O)cc1,106,111
COc1ccc(NC(=O)c2oc3ccccc3c2NC(=O)c2cc3ccccc3o2)cc1,102,97
Cc1cc(C)cc(N2C(=O)CCSC23C(=O)N(Cc2ccccc2)c2ccccc23)c1 (centres undefined),104,107
O=C(NCc1ccccc1)c1cc2ccccc2o1,100,96
COc1ccc(-c2c3c(=O)n(C)c(=O)n(C)c3c3c(C)nc4ccccc4n23)cc1,103,110
O=C(NCc1ccccc1F)c1ccc(CN2CC(=O)N3CCCCC3C2=O)cc1 (centres undefined),111,110
CCC1CCCCN1C(=O)Cn1c(=O)n(-c2ccccc2C(F)(F)F)c(=O)c2c(C)c(C(=O)N(C)C)sc21 (centres undefined),110,112
O=S(=O)(Nc1ccc(-c2ccc(N3CCCC3)nn2)cc1)c1ccc(C(F)(F)F)cc1,99,106
CCOc1ccccc1NC(=O)CSc1nc2cc(OC)c(OC)cc2c2nc(CCn3c(C)nc4ccccc43)nn12,104,107
CCOc1ccccc1NC(=O)Cn1c(=O)n(Cc2ccc(C(=O)NCCCOC)cc2)c(=O)c2ccccc21,106,102
CCN(CC)C(=O)CSc1nc2ccccc2c(=O)n1Cc1ccco1,104,109
COc1ccccc1NC(=O)c1c(NCc2ccc(C)o2)sc2c1CCCCC2,112,122
COc1ccc(-c2oc3ncn4nc(-c5ccccc5Br)nc4c3c2-c2ccc(OC)cc2)cc1,108,110
O=C(NCc1cccc(Cl)c1)c1oc(=O)c2ccccc2c1-c1ccccc1,109,114
COc1cccc(C(=O)Nc2nc(-c3nnn(-c4ccccc4C(F)(F)F)c3C)ns2)c1,102,104

# Filtered by structure, the compounds so far with a CF3 group.
SMILES,Polio RdRp inh,Polio RdRp inh intensity
COc1cc(NC(=O)CSc2nc(-c3cccs3)cc(C(F)(F)F)n2)cc(OC)c1OC,101,104
CCC1CCCCN1C(=O)Cn1c(=O)n(-c2ccccc2C(F)(F)F)c(=O)c2c(C)c(C(=O)N(C)C)sc21 (centres undefined),110,112
O=S(=O)(Nc1ccc(-c2ccc(N3CCCC3)nn2)cc1)c1ccc(C(F)(F)F)cc1,99,106
COc1cccc(C(=O)Nc2nc(-c3nnn(-c4ccccc4C(F)(F)F)c3C)ns2)c1,102,104

# Later entries:
SMILES,Polio RdRp inh,Polio RdRp inh intensity
COc1ccc(CN2C(=O)c3oc4ccccc4c(=O)c3C2c2ccc(O)c(OC)c2)cc1 (centres undefined),106,109
COc1ccccc1OCCn1c(NC(=O)c2ccc(Cl)cc2)nc2ccccc21,101,106
COc1cc2c(c(OC)c1)C(c1cc(OC)c(OC)c(OC)c1)CC(=O)N2 (centres undefined),106,106
Cc1cc(C)c(NC(=O)Cn2c(=O)n(CCC(=O)NCc3ccccc3Cl)c(=O)c3sccc32)c(C)c1,108,111
Cc1cccc(-n2ncc3c(NCCOCCO)ncnc32)c1,105,109
CCOC(=O)c1ccc(Nc2c(-c3ccc(N(C)C)cc3)nc3nc[nH]n23)cc1,107,114
Cc1nnc(NCc2ccccc2)c2c1nnn2Cc1ccccc1Cl,110,111
Cc1cccc(OCC(=O)Nc2ccccc2C(=O)OCc2cc(=O)n3ccsc3n2)c1,96,103
CCOc1ccc(NC(=O)CC2C(=O)N(c3ccc(C)cc3)C(=O)N2C2CCCCC2)cc1 (centres undefined),102,104
Cc1cccn2c(=O)c3cc(C(=O)NCc4cccnc4)c(=N)n(CCCO)c3nc12,104,105
CCCCNC(=O)c1cnc2sc(N3CCCCC3)nn2c1=O,106,110

# Retrieved by compound from above:
SMILES,Polio RdRp inh,Polio RdRp inh intensity
Cc1cccc(-n2ncc3c(NCCOCCO)ncnc32)c1,105,109
Cc1cccc(OCC(=O)Nc2ccccc2C(=O)OCc2cc(=O)n3ccsc3n2)c1,96,103
Cc1cc(C)c(NC(=O)Cn2c(=O)n(CCC(=O)NCc3ccccc3Cl)c(=O)c3sccc32)c(C)c1,108,111
Cc1nnc(NCc2ccccc2)c2c1nnn2Cc1ccccc1Cl,110,111
CCCCNC(=O)c1cnc2sc(N3CCCCC3)nn2c1=O,106,110
CCOC(=O)c1ccc(Nc2c(-c3ccc(N(C)C)cc3)nc3nc[nH]n23)cc1,107,114
COc1cc2c(c(OC)c1)C(c1cc(OC)c(OC)c(OC)c1)CC(=O)N2 (centres undefined),106,106
